# Source: PubChem BioAssay
# Ecoli growth = blocks Escherichia coli growth; 330,000 tested, 0.21% active; OD600, 23 h; active compounds read low; OD600 absorbance (concentration not given with the values);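 active = OD600 absorbance below the run mean of sample wells minus 3.6 SD, in any replicate, cut at about 0.56 in these data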;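 note: stock transfer was 300 nL into about 60 µL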
# HNF4A DNA FP = change in binding of human HNF4 alpha to DNA | P41235 | AID 1224865 | activity change, % at 10 µM | 360,000 tested, 0.3% active | HNF4a-FITC DNA binding, fluorescence polarization, 1 h; in the data active = activity change above about 30%, passing the limit was not always enough;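 note: controls were the assay level and a saturating level of protein; the project sought stronger binding though the title names inhibitors; some compounds called inactive have numbers as strong as hits; positive values seem to mean higher polarization but the record does not say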
# LANA-H2A inh = blocks KSHV LANA binding to histone H2A/H2B; Q9QR71; 320,000 tested, 0.6% active; AID 2629; cell-free LANA-H2A/H2B peptide, fluorescence polarization; inhibition, % (concentration not given with the values); in the data active = inhibition mostly above about 10%, no sharp cut-off; inactive = mostly below about 6.7%;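 note: stock transfer was 7.5 nL into about 10 µL; 0% = median of vehicle wells and 100% = median of positive control wells; one replicate is shown; the record names a cut of 25% in any replicate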
# Target sequence (Q9QR71 whole entry, looked up): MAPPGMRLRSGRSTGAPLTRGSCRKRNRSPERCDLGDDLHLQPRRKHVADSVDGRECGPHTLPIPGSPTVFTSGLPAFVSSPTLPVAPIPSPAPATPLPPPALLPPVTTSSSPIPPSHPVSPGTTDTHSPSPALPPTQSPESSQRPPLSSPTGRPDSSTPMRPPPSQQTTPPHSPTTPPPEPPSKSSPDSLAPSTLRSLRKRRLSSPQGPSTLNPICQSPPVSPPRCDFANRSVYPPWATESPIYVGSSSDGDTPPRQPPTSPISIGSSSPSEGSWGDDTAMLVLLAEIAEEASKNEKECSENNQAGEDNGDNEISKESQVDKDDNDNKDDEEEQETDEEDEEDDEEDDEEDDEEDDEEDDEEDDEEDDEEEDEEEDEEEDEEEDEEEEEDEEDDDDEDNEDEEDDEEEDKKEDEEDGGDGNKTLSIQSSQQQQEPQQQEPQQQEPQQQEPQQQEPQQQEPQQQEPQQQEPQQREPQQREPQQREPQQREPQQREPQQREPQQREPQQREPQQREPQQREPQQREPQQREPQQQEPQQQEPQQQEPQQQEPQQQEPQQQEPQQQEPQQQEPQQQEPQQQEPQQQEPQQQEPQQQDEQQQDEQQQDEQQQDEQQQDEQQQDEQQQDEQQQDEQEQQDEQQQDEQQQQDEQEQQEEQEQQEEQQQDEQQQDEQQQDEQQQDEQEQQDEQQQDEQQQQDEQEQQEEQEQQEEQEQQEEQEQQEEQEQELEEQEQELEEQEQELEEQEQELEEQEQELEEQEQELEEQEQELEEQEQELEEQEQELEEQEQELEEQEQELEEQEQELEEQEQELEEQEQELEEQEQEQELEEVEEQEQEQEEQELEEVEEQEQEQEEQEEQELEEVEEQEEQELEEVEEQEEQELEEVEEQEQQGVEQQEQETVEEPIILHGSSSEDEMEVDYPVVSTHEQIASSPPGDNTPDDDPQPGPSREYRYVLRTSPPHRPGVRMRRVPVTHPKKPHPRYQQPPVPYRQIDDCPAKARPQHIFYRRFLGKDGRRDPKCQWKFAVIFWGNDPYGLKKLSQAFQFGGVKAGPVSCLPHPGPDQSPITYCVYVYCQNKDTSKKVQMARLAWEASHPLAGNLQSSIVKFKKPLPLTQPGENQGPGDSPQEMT
# UCH37 inh = blocks the human deubiquitinase UCH37; inhibition, % (concentration not given with the values); 330,000 tested, 0.33% active; purified proteasome/UCH37, Ub-AMC cleavage fluorescence;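 active = mean of two replicates above 20%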;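 note: 0% = compound-free wells with enzyme and 100% = wells lacking proteasome; stock transfer was 100 nL into about 20 µL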
#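 Test system – human UCH37 enzyme supplied as purified proteasome complex · Incubation – 30 min preincubation with enzyme, 25 min cleavage at room temperature · Detection – AMC fluorescence from Ub-AMC cleavage, excitation 355 nm, emission 460 nm · Benchmarks – no-proteasome wells (full inhibition) and compound-free wells (no inhibition)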
# ALR H2O2 inh = blocks human ALR sulfhydryl oxidase activity; inhibition, % (no concentration beside the values); P55789; 290,000 tested, 3.8% active; AID 485317; purified ALR, DTT oxidation, H2O2 HRP-luminol luminescence;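 active = mean and each replicate at 75% or more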;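 note: stock transfer was 7.5 nL into about 7.5 µL; 0% = neutral wells and 100% = wells with inactivated enzyme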
# FGF22 binding = binders of recombinant human FGF22 by thermal shift; calls only at 9.99 µM; AID 651658; SYPRO orange fluorescence; percent of sucrose octasulfate shift, DMSO zero; 340,000 tested, 1.5% active;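 active = melting point raised past a set limit in the mean and every replicate; three in four hits are not shown here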
# Beta2AR agonist = agonists of human beta-2 adrenergic receptor inducing internalization; response, % (concentration not given with the values); P07550; AID 504454; 340,000 tested, 0.43% active; Am2.2-beta2AR cells, FAP receptor internalization, flow cytometry; reference of the scale not given here;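 active = response above a set limit, near 3 SD of response in nonfluorescent compounds, cut at about 42% in these data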;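 note: stock transfer was 100 nL into about 11 µL; a reference agonist was the positive control; negative values mostly stem from fluorescent compounds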
# An asterisk follows results filed as active; i = inactive; . = not tested or not shown; & = joins results of further samples. This is a subset; count on the stated rates, not on these rows.
# Every second line gives: Ecoli growth	HNF4A DNA FP	LANA-H2A inh	UCH37 inh	ALR H2O2 inh	FGF22 binding	Beta2AR agonist
> O=S(=O)(NCc1ccccc1F)c1cccc(S(=O)(=O)N2CCOCC2)c1
  0.72	-1.7	-5.7	-1.3	-8	i	0
> O=C(CSc1nc(C(F)(F)F)cc(=O)[nH]1)NCc1ccc2c(c1)OCO2
  0.7	4.0	-4.0	-0.2	0	i	5
> Nc1nc2c(ncn2[C@H]2C[C@H](O)[C@@H](CO)O2)c(=O)[nH]1
  .	0.5	2.9	3.5	-2	i	0
> Cc1cccc(-c2nc3ccccc3c3nncn23)c1
  0.63	-0.5	5.1	5.5	6	.	-14
> CCOC(=O)C1=C(COC(=O)/C=C/c2ccc(OC)cc2OC)NC(=O)NC1C (centres undefined)
  .	-4.2	-1.3	.	-32	.	-1
> CN1CCC(Oc2ccccc2Sc2ccccc2)CC1
  0.59	-0.5	-0.2	5.4	-12	.	15
> O=C1C2CCCN2C(=O)N1CCCCN1CCN(c2ccccc2)CC1 (centres undefined)
  0.68	0.1	-0.3	-0.2	34	.	-4
> COc1ccc(C(=O)OC2C(OC)OCC(O)C2O)cc1 (centres undefined)
  0.66	3.3	.	2.0	.	i	-3
> CC1(C)Cc2nc3scc(NC(=O)c4ccccc4)c3cc2CO1
  0.67	-5.6	3.5	4.6	34	i	-7
> COc1ccc(C(=O)N2CCCC2(C#N)c2ccccc2)cc1[N+](=O)[O-] (centres undefined)
  0.68	0.2	-0.2	3.7	-12	i	-1
> CCN(C1CCCCC1)S(=O)(=O)CCNC(=O)c1ccccc1
  .	-2.9	-1.9	.	1	i	-3
> C[C@]12CC[C@@H]3c4ccc(OS(=O)(=O)O)cc4CC[C@H]3[C@@H]1CCC2=O
  .	-0.8&-0.7	-2.0&4.5&-20&0.6	0.0&1.5&0.1	-10&-4	i	1&-9
> O=C(CCCN1C(=O)c2cccc3cccc(c23)C1=O)NCc1cccs1
  0.68	-0.1	1.6	-40	-7	i	-1
> Cn1nnnc1SCc1nc2scc(-c3ccc(Cl)cc3)c2c(=O)[nH]1
  0.75	39*	-3.4	0.2	-11	i	-1
> COc1ccc(CC(=O)NNC(=O)c2cccs2)cc1
  0.71	0.0	-1.0	1.9	-3	i	15
> COc1ccc(CC(=O)Oc2ccc(F)c(F)c2)cc1S(=O)(=O)N1CCOCC1
  0.69	7.6	-0.9	2.2	10	i	7
> O=C(Nc1cc(Cl)ccc1Cl)C1Cc2ccccc2O/C1=N\O (centres undefined)
  .	4.0	0.9	.	-19	i	-8
> COc1ccc(/C=N/Nc2nnc(-c3ncc[nH]3)c3ccccc23)cc1
  .	3.1	-2.1	.	10	.	-8
> O=C(Cc1ccc(Cl)cc1)Nc1ccccc1CO
  0.73	0.7	2.4	1.6	-5	.	15
> O=C(Nc1nc2ccc(Cl)cc2s1)C1CC1
  0.65	0.1	0.7	1.7	66	i	0
> COc1ccc(CCNC(=O)C2CCC(C(C)(C)C)CC2)cc1OC (centres undefined)
  0.66	-2.8	58*	5.3	-7	i	3
> Cc1nnc(SCc2cnc(-c3ccc(C(C)C)cc3)s2)n1C
  0.68	-0.1	-7.3	2.2	98*	.	-17
> C=CCOC(=O)C1=C[C@H](c2ccc(Br)cc2)[C@@H](CCCO)[C@H](OCC)O1
  .	-0.1	0.0	5.1	-17	i	1
> CCOC(=O)C1CCN(C(=S)Nc2ccc(Cl)cc2C)CC1
  0.64	-1.2	-0.1	-0.4	.	i	8
> C=CCn1cnc2scc(-c3ccc(C)cc3)c2c1=O
  0.71	-0.1	-3.1	2.7	7	.	-1
> CC(C)(C)c1cc(C(=O)NNC(=O)c2ccc(C(F)(F)F)cc2)no1
  0.64	2.8	1.0	4.4	0	i	2
> Cc1cc(OC(C)C(=O)NCC2CCC(C(=O)O)CC2)c2c(C)c(C)c(=O)oc2c1 (centres undefined)
  0.69	2.0	4.4	-124	-19	i	0
> Cc1ccc(S(=O)(=O)N(C)C)cc1NC(=O)COC(=O)c1ccc(Cl)cc1
  0.68	1.8	-8.0	2.4	0	i	-3
> CNS(=O)(=O)c1ccc2c3c(cccc13)C(=O)N2
  0.58	-1.1	-13	i	-17	i	4
> O=C(NCc1ccccc1)c1onc(CSc2ccncc2)c1C(=O)NCc1ccccc1
  0.75	-2.2	-1.8	4.0	-5	i	-2
> O=[N+]([O-])c1ccc(NCCNS(=O)(=O)c2ccccc2)cc1
  0.65	-5.1	-0.6	3.6	-4	i	4
> COc1ccc(OCC(=O)Nc2ccc(OC)c(S(=O)(=O)N3CCCCC3)c2)cc1
  0.69	0.7	7.7	3.5	-11	.	-7
> COc1ccc(/C=C(\C#N)C(=O)OC2CCOC2=O)cc1 (centres undefined)
  0.68	5.3	2.1	9.6	1	i	1
> COc1ccc(CCN2CC(C(=O)NCCc3cnn(C)c3)CCC2=O)cc1 (centres undefined)
  0.62	2.1	10	0.0	-2	i	5
> COc1ccc2c(CC(=O)OCC(=O)Nc3ccc4c(c3)OCO4)coc2c1
  0.66	4.7	-5.8	-0.5	-2	.	-2
> CCOc1ccc(CN(C(=O)c2ccco2)C2CCS(=O)(=O)C2)cc1 (centres undefined)
  0.68	0.3	2.2	-1.4	-4	.	5
> CCOc1ccc(-n2c(=O)[nH]cc(C(=O)Nc3ccc(OC)c(OC)c3)c2=O)cc1
  0.69	0.2	-2.5	7.3	.	i	11
> N#Cc1nc(-c2ccccc2F)oc1NCCN1CCOCC1
  0.71	1.5	-4.4	-48	96*	i	-5
> C[C@H]1NC(=O)[C@@]2(C)[C@@H](c3ccccc3)[C@H]3COc4ccccc4[C@@H]3N2C1=O
  .	0.3	6.5	15	-1	i	2
> Fc1ccc(COc2ccc(C(=S)N3CCCC3)cc2)cc1
  0.65	-1.7	22*	4.9	15	i	-7
> C/C(=N\O)c1ccn(S(=O)(=O)c2ccc(Cl)cc2)c1
  .	-2.2	-1.2	.	-3	i	-2
> CC(C)c1nc(C(=O)N2CCCC(CCC(=O)N(C)CCc3ccccn3)C2)cs1 (centres undefined)
  0.72	0.8	-2.7	5.9	3	i	0
> O=C(Cc1ccc(Cl)cc1)Nc1cccc2ncccc12
  0.62	-5.6	0.4	-2.0	-13	i	-15
> O=C(N/N=C/c1ccco1)C1CC1(c1ccccc1)c1ccccc1 (centres undefined)
  .	-2.5	-3.6	.	-2	.	1
> CSc1ccccc1NC(=O)C1CC(c2ccccc2Cl)=NO1 (centres undefined)
  0.63	-0.2	-6.7	1.7	-5	i	1
> COc1ccc(NC(=O)CN2C(=O)NC3(CCCCC3C)C2=O)cc1S(=O)(=O)N1CCOCC1 (centres undefined)
  0.68	-2.9	0.6	2.3	-11	i	0
> CCN(CC)S(=O)(=O)c1ccc(CNC(=O)CN2C(=O)NC3(CCc4ccccc43)C2=O)cc1 (centres undefined)
  0.68	-4.7	.	-2.5	.	i	-6
> COc1cc2oc(=O)ccc2c(OC)c1CC(O)C(C)(C)O (centres undefined)
  0.62	1.0	1.4	-1.1	-4	i	-3
> COc1cccc(CN2CCN(C(c3ccccc3)c3ccccc3)CC2)c1O
  0.69	-1.4	3.6	2.1	29	i	4
> CCc1nnc(NC(=O)[C@@H](NC(=O)c2cc(OC)cc(OC)c2)C(C)C)s1
  0.68	-0.4	1.5	0.1	-35	i	-9
> CCCCCC(=O)OC(CN1CCCCC1)CN1CCCC1=O (centres undefined)
  0.74	-1.4	5.3	3.7	0	.	2
> COC(=O)C1=CN(C2CCCCC2)C=C(C(=O)OC)C1c1ccc2c(c1)OCO2
  0.7	2.8	-8.7	-126	-16	i	-5
> CSc1ccccc1NC(=O)CN(C)CC(=O)Nc1ccccc1C(F)(F)F
  0.67	0.6	-0.4	2.2	1	i	0
> O=C(COC(=O)CNC(=O)c1sc2ccccc2c1Cl)Nc1c(Cl)cc(Cl)cc1Cl
  0.66	2.6	0.0	-1.0	-6	i	2
> CC(OC(=O)c1ccccc1NS(=O)(=O)c1cccc(N)c1)C(=O)N(C)Cc1ccccc1 (centres undefined)
  0.7	-0.1	1.0	-1.5	1	i	7
> Cc1cccc(NC(=O)C2Cc3ccccc3O/C2=N\O)c1 (centres undefined)
  .	1.0	5.3	.	-11	i	-2
> O=C(NC1(C(F)(F)F)N=C2SCCN2C1=O)c1ccccc1 (centres undefined)
  0.72	-1.6	-0.1	1.4	1	.	-3
> Cn1cccc1/C=C1\SC(=Nc2ccc(O)cc2)NC1=O
  0.68	2.1	1.2	7.8	99*	i	22
> Cn1c(SCC(=O)Nc2cccnc2Cl)nnc1-c1ccco1
  0.66	3.0	-1.5	4.1	-3	i	-8
> COC(=O)[C@@H]1C[C@]2(Br)c3ccccc3N(S(=O)(=O)c3ccccc3)[C@@H]2N1C(=O)OC
  .	-0.4	1.2	1.7	1	i	0

# Single records, from the list above. Values in the order: Ecoli growth	HNF4A DNA FP	LANA-H2A inh	UCH37 inh	ALR H2O2 inh	FGF22 binding	Beta2AR agonist
# CNS(=O)(=O)c1ccc2c3c(cccc13)C(=O)N2 as listed: 0.58	-1.1	-13	i	-17	i	4
# O=C(CCCN1C(=O)c2cccc3cccc(c23)C1=O)NCc1cccs1 as listed: 0.68	-0.1	1.6	-40	-7	i	-1
# COc1ccc2c(CC(=O)OCC(=O)Nc3ccc4c(c3)OCO4)coc2c1 as listed: 0.66	4.7	-5.8	-0.5	-2	.	-2
# Nc1nc2c(ncn2[C@H]2C[C@H](O)[C@@H](CO)O2)c(=O)[nH]1 as listed: .	0.5	2.9	3.5	-2	i	0

# Later entries:
# Every second line gives: Ecoli growth	HNF4A DNA FP	LANA-H2A inh	UCH37 inh	ALR H2O2 inh	FGF22 binding	Beta2AR agonist
> O=C(Sc1cccc2cccnc12)c1ccc(F)cc1
  0.68	.	.	-0.1	.	i	.
> CCOC(=O)C1(Cc2ccc(Cl)cc2)CCN(Cc2cnc(N)nc2)CC1
  0.72	3.7	1.4	-1.7	.	i	3
> C#Cc1ccc([C@@H]2C=C(C(=O)N3CCN(Cc4ccc5c(c4)OCO5)CC3)O[C@H](OCC)[C@H]2CCCO)cc1
  .	0.2	1.1	4.4	-6	i	12
> CSc1ncccc1C(=O)OCc1cccc([N+](=O)[O-])c1
  0.69	-1.6	-1.3	3.1	-1	.	1
> Cc1nn(Cc2ccccc2Cl)c(Cl)c1/C=C/C(=O)OCC(=O)NC1CCS(=O)(=O)C1 (centres undefined)
  0.66	-3.8	-2.0	2.5	-2	i	5
> O=C(NC1CCS(=O)(=O)C1)C1CCCCN1S(=O)(=O)c1ccc(Cl)cc1 (centres undefined)
  0.7	-4.4	0.9	-1.0	0	i	-1
> CC(NC(=O)c1cc(COc2cccc(C(F)(F)F)c2)on1)c1nccs1 (centres undefined)
  0.69	-0.7	1.7	3.5	4	i	3
> Cc1ccc(Nc2nc(-c3ccc(S(=O)(=O)N4CCOCC4)cc3)cs2)cc1Cl
  0.72	2.8	4.7	-163	.	.	15
> CCOc1ccc(C2C(C#N)=C(N)Oc3cc(C)n(CCN4CCOCC4)c(=O)c32)cc1OCC (centres undefined)
  0.74	2.1	.	-3.4	.	.	-4
> Cc1cccc(OCc2nnc(SCc3nc4cc(C(F)(F)F)ccc4c(=O)[nH]3)o2)c1
  0.76	26	-0.9	2.3	.	.	2
> Cc1ncc(S(=O)(=O)c2ccccc2)c(-c2ccc(Cl)cc2Cl)n1
  0.65	5.7	-2.5	-3.8	0	.	5
> CNC(=S)NNC(=O)c1cc(-c2cccnc2)nc2ccccc12
  0.65	-3.4	2.3	3.3	47	i	-10
> COc1ccc(Br)cc1CN1CCC(N2CCCC2)CC1
  0.7	-3.3	0.9	6.1	-10	i	5
> Cc1cc(OCC(=O)NCCN2CCOCC2)cc(C)c1Cl
  0.66	1.1	0.6	2.2	1	i	4
> CNc1c(NC(=O)COc2ccc(Cl)cc2)c(=O)oc2ccccc12
  0.65	3.1	0.0	-13	-2	i	-4
